Vaccinia inh: blocks a specific stage of Vaccinia orthopoxvirus infection, primary screen, cell-based, single point; Vaccinia-infected cells, mCherry/Venus stage reporter fluorescence; hits give low values; some inactives read as strong as hits; 0.01% of 89,000 active; activity change (mCherry), % (concentration not given with the values);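 active = mCherry past -33% and 40 or more points under the early reporter, replicates agreeing; inconclusive = past -33% without that gap or agreement; tested in A549 cells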;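 note: scaled between vehicle wells and reference inhibitor wells; 23 nL library stock went into each well; one replicate is shown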
Vaccinia inh Venus: recorded beside Vaccinia inh, whose call it bears; activity change (Venus), %; measured here: Venus reporter, other viral stage;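 negative = less Venus signal; first of two replicates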
Starred values were filed as active, the others as inactive; ? = inconclusive; / = no result given. Only part of the results is shown; count on the stated rates, not on these rows.

SMILES	Vaccinia inh	Vaccinia inh Venus
CC(=O)NC[C@@H]1[C@H](c2ccc(-c3ccccc3)cc2)[C@@H](CO)N1C(=O)C1CC1	-3.9	7.6
C[C@@H]1CCCCO[C@H](CN(C)C(=O)c2ccncc2)[C@H](C)CN([C@H](C)CO)C(=O)c2cc(NS(C)(=O)=O)ccc2O1	12.5	0.7
CO[C@@H]1CN(C)C(=O)c2cc(NC(=O)c3ccccc3F)ccc2OC[C@H](C)N(C)C[C@@H]1C	2.5	-2.3
O=C(NCCCN1CCOCC1)[C@H]1[C@H](CO)[C@H]2Cn3c(cccc3=O)[C@@H]1N2C(=O)NC1CCCC1	-3.8	3.9
CO[C@H]1CN(C)C(=O)c2cc(NC(=O)c3cc(C)on3)ccc2OC[C@H](C)N(C(C)=O)C[C@H]1C	-6.9	-2.9
CCCN(C)C[C@H]1Oc2cc(C#Cc3cccc(F)c3)ccc2S(=O)(=O)N([C@H](C)CO)C[C@H]1C	-29.7	-21.9
CC(C)NC(=O)N(C)C[C@H]1OCCCC[C@@H](C)Oc2ccc(NC(=O)CCCN(C)C)cc2C(=O)N([C@H](C)CO)C[C@@H]1C	29.7	10.2
C[C@H]1CN([C@@H](C)CO)C(=O)Cc2cc(NC(=O)Nc3ccccc3)ccc2O[C@@H]1CN(C)CC1CC1	3.2	6.2
O=C(C[C@H]1CC[C@@H]2[C@H](COC[C@@H](O)CN2C(=O)Nc2ccccc2)O1)NCCc1ccncc1	10.4	3.5
CCCN(C)C[C@H]1Oc2cc(C#Cc3cccc(OC)c3)ccc2S(=O)(=O)N([C@@H](C)CO)C[C@H]1C	-15.4	-7.4
O=C(C[C@@H]1C[C@@H]2c3cc(NS(=O)(=O)c4ccccc4)ccc3O[C@@H]2[C@@H](CO)O1)N1CCCCC1	14.1	10.6
Cc1noc(C)c1NC(=O)Nc1ccc2c(c1)C(=O)N([C@H](C)CO)C[C@H](C)[C@H](CN(C)C(=O)NC(C)C)OCCCC[C@H](C)O2	8.3	8.5
CCCC#Cc1cnc2c(c1)C(=O)N([C@@H](C)CO)C[C@H](C)[C@@H](CN(C)Cc1cccnc1)O2	5.9	3.5
C[C@H](CO)N1C[C@H](C)[C@H](CN(C)C(=O)Nc2ccc3c(c2)OCO3)Oc2c(NC(=O)c3nc4ccccc4s3)cccc2C1=O	3.3	1.3
Cc1noc(C)c1NC(=O)Nc1ccc2c(c1)C(=O)N([C@@H](C)CO)C[C@@H](C)[C@H](CN(C)C(=O)Nc1ccc(C(F)(F)F)cc1)OCCCC[C@@H](C)O2	-0.4	0.8
C[C@H](CO)N1C[C@H](C)[C@H](CN(C)CC2CC2)Oc2c(NC(=O)Nc3ccc(C(F)(F)F)cc3)cccc2C1=O	-14.6	-19.7
C[C@H]1CN([C@@H](C)CO)C(=O)c2cccc(NC(=O)C3CC3)c2O[C@H]1CN(C)CC1CCCCC1	6.3	2.6
COc1cccc(S(=O)(=O)Nc2ccc3c(c2)C(=O)N(C)C[C@@H](OC)[C@H](C)CN(Cc2ccccc2F)[C@@H](C)CO3)c1	-25.6	-20.8
C[C@@H]1CN([C@@H](C)CO)C(=O)c2cc(NC(=O)C3CCCCC3)ccc2O[C@@H](C)CCCCO[C@@H]1CN(C)C(=O)Nc1ccc(F)cc1	10.5	8.1
C[C@@H]1CN([C@@H](C)CO)C(=O)c2cc(NS(=O)(=O)c3ccccc3)ccc2O[C@@H]1CN(C)Cc1ccc2c(c1)OCO2	10.1	-1.6
COc1ccc(S(=O)(=O)Nc2ccc3c(c2)C(=O)N([C@@H](C)CO)C[C@@H](C)[C@@H](CN(C)S(=O)(=O)c2ccc(Cl)cc2)OCCCC[C@H](C)O3)cc1	-10.3	-10.4
O=C(CCN1CCCCC1)NCC[C@@H]1CC[C@H](NC(=O)c2ccc(F)cc2)[C@@H](CO)O1	4.2	-3.2
CCNC(=O)Nc1ccc2c(c1)C(=O)N(C)[C@@H]1CC[C@@H](CC(=O)NCc3ccccc3F)O[C@@H]1CO2	-2.1	-2.7
Cc1noc(C)c1S(=O)(=O)Nc1ccc2c(c1)C(=O)N([C@H](C)CO)C[C@H](C)[C@@H](CN(C)Cc1ccc(C(F)(F)F)cc1)OCCCC[C@H](C)O2	?	/
C[C@H](CO)N1C[C@H](C)[C@H](CN(C)C(=O)c2ccc(F)cc2)Oc2ncc(C#CCN(C)C)cc2C1=O	16.4	13.7
Further records follow:
SMILES	Vaccinia inh	Vaccinia inh Venus
CO[C@H]1CN(C)C(=O)c2cc(NC(=O)Nc3ccccc3)ccc2OC[C@H](C)N(C(C)=O)C[C@@H]1C	4.9	11.7
CN(C)C(=O)c1ccc(-c2ccc([C@@H]3[C@H](C#N)N[C@H]3CO)cc2)cc1	3.9	1.4
CO[C@@H](CN(C)S(=O)(=O)c1ccc(Cl)cc1)[C@@H](C)CN(C(=O)Nc1ccccc1F)[C@@H](C)CO	-2.4	5.9
COCC(=O)N(C)C[C@@H]1Oc2ncc(C3=CCCCC3)cc2C(=O)N([C@H](C)CO)C[C@H]1C	11.4	3.1
C[C@@H]1CN([C@H](C)CO)C(=O)Cc2cc(NC(=O)Cn3cnnn3)ccc2O[C@H]1CN(C)Cc1ccc2c(c1)OCO2	18.6	19.1
C[C@@H]1CCCCO[C@H](CN(C)CC2CCCCC2)[C@@H](C)CN([C@H](C)CO)C(=O)c2cc(NS(=O)(=O)c3cn(C)cn3)ccc2O1	18.9	11.2
COc1ccc(C(=O)Nc2ccc3c(c2)C(=O)N(C)C[C@H](OC)[C@@H](C)CN[C@@H](C)CO3)cc1	0.4	7.2
COCC(=O)N(C)C[C@@H]1Oc2cc(C3=CCCC3)ccc2S(=O)(=O)N([C@H](C)CO)C[C@@H]1C	2.3	-4.9
O=C(O)C[C@@H]1C=C[C@@H](NC(=O)CCN2CCCCC2)[C@H](CO)O1	0.9	0.3
CC(C)c1cn(CC[C@H]2CC[C@H](NC(=O)C3CC3)[C@@H](CO)O2)nn1	-10.0	-5.3
CCC(=O)Nc1ccc2c(c1)OC[C@@H](C)N(Cc1cccc(F)c1)C[C@@H](C)[C@@H](OC)CN(C)C2=O	-12.4	-7.9
COCC#Cc1cnc2c(c1)C(=O)N([C@@H](C)CO)C[C@@H](C)[C@H](CN(C)S(=O)(=O)c1cccc(OC)c1)O2	7.9	-0.4
COCC(=O)N1[C@@H](C#N)[C@@H](c2ccccc2-c2cccc(F)c2)[C@@H]1CO	5.4	2.7
C[C@H](CO)N1C[C@H](C)[C@@H](CN(C)Cc2ccccc2)Oc2ccc(NC(=O)Cn3cnnn3)cc2C1=O	5.4	9.3
COc1ccc(S(=O)(=O)N[C@@H]2CC[C@H](CC(=O)NCCc3ccccc3)O[C@@H]2CO)cc1	-2.5	-4.6
C[C@H](CO)N1C[C@H](C)[C@@H](CN(C)C(=O)NC2CCCCC2)Oc2ccc(NC(=O)Nc3ccccc3)cc2C1=O	9.7	6.9
CCCN1[C@H](C(=O)NC2CCC2)[C@@H](CO)[C@@H]2Cn3c(ccc(-c4cccnc4)c3=O)[C@@H]21	0.4	4.5
O=C(Nc1cc(F)ccc1F)N1CC(=O)N2[C@@H](CO)[C@@H](c3ccc(C#CC4CCCCC4)cc3)[C@@H]2C1	?	/
CCCC#Cc1cnc2c(c1)C(=O)N([C@@H](C)CO)C[C@H](C)[C@@H](CN(C)C(=O)c1cccc(F)c1)O2	2.7	8.3
O=S(=O)(Cc1ccccc1)N1CCCCN2[C@H](C1)[C@@H](c1ccc(-c3ccccc3)cc1)[C@@H]2CO	-5.5	-3.2
C[C@@H]1CCCCO[C@@H](CN(C)S(=O)(=O)c2cn(C)cn2)[C@H](C)CN([C@@H](C)CO)C(=O)c2cc(N(C)C)ccc2O1	-3.3	-0.8
COC(=O)C[C@@H]1C[C@@H]2c3cc(NC(=O)Nc4ccc(C(F)(F)F)cc4)ccc3O[C@@H]2[C@H](CO)O1	18.1	12.4
C[C@@H]1CN([C@H](C)CO)C(=O)c2cccc(NS(=O)(=O)c3cn(C)cn3)c2O[C@H]1CN(C)Cc1ccc(Oc2ccccc2)cc1	0.7	-3.6
COc1ccccc1NC(=O)N(C)C[C@H]1Oc2ncc(Br)cc2C(=O)N([C@H](C)CO)C[C@@H]1C	14.5	11.7
Cc1ccc(S(=O)(=O)N(C)C[C@H]2Oc3ccc(NC(=O)Nc4cccc5ccccc45)cc3CC(=O)N([C@@H](C)CO)C[C@@H]2C)cc1	-3.6	5.6
(next part)
SMILES	Vaccinia inh	Vaccinia inh Venus
COc1ccc(S(=O)(=O)Nc2ccc3c(c2)CC(=O)N([C@H](C)CO)C[C@H](C)[C@@H](CN(C)CC2CC2)O3)cc1	-8.0	-2.7
CN(C)CC(=O)Nc1ccc2c(c1)[C@@H]1C[C@@H](CC(=O)NCc3ccc(Cl)cc3)O[C@@H](CO)[C@@H]1O2	6.4	6.4
CC(=O)N(C)C[C@H]1Oc2ncc(C#Cc3ccc(F)cc3)cc2C(=O)N([C@H](C)CO)C[C@H]1C	0.4	1.2
COc1ccc(NC(=O)Nc2ccc3c(c2)C(=O)N([C@H](C)CO)C[C@H](C)[C@H](CN(C)Cc2ccc(Oc4ccccc4)cc2)O3)cc1	?	/
COCC(=O)N(C)C[C@@H]1Oc2cc(Br)ccc2S(=O)(=O)N([C@H](C)CO)C[C@H]1C	0.3	-0.5
C[C@H](CO)N1C[C@H](C)[C@@H](CN(C)C)Oc2cc(C3=CCCC3)ccc2S1(=O)=O	-15.3	-17.4
CCNC(=O)C[C@@H]1CC[C@@H]2[C@@H](COc3ccc(NC(=O)c4ccc(F)cc4)cc3C(=O)N2C)O1	-7.8	-8.2
O=C(N[C@@H]1CC[C@H](CCNC(=O)C2CC2)O[C@@H]1CO)c1ccccn1	5.8	6.6
C[C@@H]1CN([C@@H](C)CO)C(=O)c2cc(NS(=O)(=O)c3ccc(Cl)cc3)ccc2O[C@H]1CN(C)S(=O)(=O)c1cccs1	-7.8	2.0
CC(=O)N(C)C[C@H]1Oc2ncc(-c3ccc(C)cc3)cc2C(=O)N([C@H](C)CO)C[C@@H]1C	3.5	0.0
C#Cc1ccc([C@@H]2C=C(C(=O)N3CCCCCCC3)O[C@H](OCC)[C@H]2CCCO)cc1	-9.7	3.5
O=C(NC1CCCCC1)[C@@H]1[C@@H](CO)[C@@H]2Cn3c(cccc3=O)[C@H]1N2Cc1cccnc1	11.1	11.9
O=C(O)C1=C[C@H](c2ccc(Br)cc2)C[C@H](OCCCCO)O1	6.5	7.6
COc1ccc(CN(C)C[C@@H]2Oc3ccc(NS(C)(=O)=O)cc3C(=O)N([C@@H](C)CO)C[C@H]2C)cc1	21.8	10.9
O=C(Cc1ccncc1)NCC[C@H]1CC[C@@H](NC(=O)C2CCC2)[C@H](CO)O1	2.9	5.3
CCN1[C@H](C(=O)NCCc2cn(C)cn2)[C@@H](CO)[C@@H]2Cn3c(ccc(-c4ccccc4)c3=O)[C@@H]21	8.3	5.1
O=C(N[C@@H]1CC[C@@H](CC(=O)N2CCCCC2)O[C@@H]1CO)c1ccccn1	-7.3	-3.2
Cc1noc(C)c1NC(=O)N(C)C[C@H]1Oc2ncc(C#CC3CCCC3)cc2C(=O)N([C@@H](C)CO)C[C@H]1C	5.4	-4.4
N#Cc1cccc(-c2ccc(C3[C@@H]4CN(C(=O)C5CCCCC5)C[C@H]3N4)cc2)c1 (some centres undefined)	?	-9.3
Cc1ccc(S(=O)(=O)N[C@@H]2CC[C@H](CC(=O)N3CCN(c4ccccc4)CC3)O[C@H]2CO)cc1	-14.7	-8.9
COc1ccccc1S(=O)(=O)Nc1ccc2c(c1)OC[C@@H](C)NC[C@H](C)[C@@H](OC)CN(C)C2=O	13.0	10.4
CCN(C[C@@H]1[C@@H](c2ccccc2)[C@@H](CO)N1C(C)=O)C(=O)NC(C)C	-1.7	-6.2
CN(C)C(=O)C[C@H]1C[C@@H]2c3cc(NC(=O)CC4CC4)ccc3O[C@@H]2[C@H](CO)O1	-1.0	8.3
N#C[C@H]1[C@@H](c2ccccc2C2=CCCC2)[C@H](CO)N1C(=O)NC1CCCCC1	-31.8	-18.0
CN1c2ccc(-c3ccc(F)cc3)cc2[C@@H]2[C@@H](CCN2C(=O)c2ccc(F)cc2)[C@H]1CO	-25.6	-21.2
Carrying on.
SMILES	Vaccinia inh	Vaccinia inh Venus
C/C=C/c1ccc2c(c1)O[C@@H](CN(C)C(=O)c1ccc3c(c1)OCO3)[C@@H](C)CN([C@H](C)CO)S2(=O)=O	-6.7	4.4
COc1cccc(NC(=O)N[C@@H]2C=C[C@H](CC(=O)Nc3ccc(-c4ccccc4)cc3)O[C@@H]2CO)c1	-26.3	-31.8
CN(C)CC(=O)Nc1ccc2c(c1)[C@@H]1C[C@@H](CC(=O)NCc3cccc(F)c3)O[C@H](CO)[C@@H]1O2	11.7	11.0
C[C@H]1CN([C@@H](C)CO)S(=O)(=O)c2ccc(C#CC3CCCCC3)cc2O[C@H]1CN(C)C	?	/
COCC(=O)Nc1ccc2c(c1)C(=O)N(C)[C@H]1CC[C@H](CC(=O)Nc3ccccc3)O[C@@H]1CO2	-5.2	3.6
COc1ccccc1CNC(=O)C[C@@H]1CC[C@@H]2[C@H](COC[C@@H](O)CN2C(=O)Nc2ccc(C(F)(F)F)cc2)O1	?	/

Fetched by structure from above, 4 records:
SMILES	Vaccinia inh	Vaccinia inh Venus
COc1cccc(NC(=O)N[C@@H]2C=C[C@H](CC(=O)Nc3ccc(-c4ccccc4)cc3)O[C@@H]2CO)c1	-26.3	-31.8
CN(C)CC(=O)Nc1ccc2c(c1)[C@@H]1C[C@@H](CC(=O)NCc3cccc(F)c3)O[C@H](CO)[C@@H]1O2	11.7	11.0
COc1ccccc1CNC(=O)C[C@@H]1CC[C@@H]2[C@H](COC[C@@H](O)CN2C(=O)Nc2ccc(C(F)(F)F)cc2)O1	?	/
COCC(=O)Nc1ccc2c(c1)C(=O)N(C)[C@H]1CC[C@H](CC(=O)Nc3ccccc3)O[C@@H]1CO2	-5.2	3.6
